Bioassay records: PubChem BioAssay, several laboratories
CBX7 inh: CBX7 chromodomain binding inhibitors, primary screen, biochemical, AlphaScreen; Chromobox protein homolog 7 (Homo sapiens), O95931; AlphaScreen His6-CBX7 / biotin-H3K27me3 peptide binding; active compounds read low; normalised signal (fraction of DMSO) (no concentration beside the values); 66,000 compounds, 1.1% hits; in the data active = normalised signal below about 0.5;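 also: 100 nL library stock added to about 20 µL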
Target sequence (O95931 whole entry, looked up): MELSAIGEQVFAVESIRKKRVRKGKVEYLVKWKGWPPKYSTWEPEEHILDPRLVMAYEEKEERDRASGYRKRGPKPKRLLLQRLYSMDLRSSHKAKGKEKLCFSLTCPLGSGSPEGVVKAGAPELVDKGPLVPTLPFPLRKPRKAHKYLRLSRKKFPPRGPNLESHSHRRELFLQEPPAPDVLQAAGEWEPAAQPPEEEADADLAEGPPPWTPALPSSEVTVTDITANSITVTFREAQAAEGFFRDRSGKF
CBX7 inh z-score: further read-out of CBX7 inh, marked with its call; z-score; measured here: z-score of CBX7 signal; some inactives read as strong as hits; reference of the scale not given here;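 same signal on another scale; lower means less binding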
The depositor's hits bear a star. This is a subset; count on the stated rates, not on these rows.

Results follow in this order: CBX7 inh, CBX7 inh z-score
O=C(Nc1ccccc1)N1CCC(c2ccccc2)C1 (configuration not stated)
  1, 0.18
Cc1ccccc1NC(=O)Cn1cnc2c(nnn2Cc2ccc(F)cc2)c1=O
  0.96, -0.71
COc1ccc(-c2nc(-c3ccc(C)cc3)[nH]c2-c2ccc(OC)cc2)cc1
  0.7, -4.7
O=C(NCCCc1nc2ccccc2[nH]1)c1ccc(Cl)cc1
  1.1, 1.1
COc1ccccc1OCC(=O)NCCc1nc2ccccc2[nH]1
  1.1, 1.2
CCN1CCN(c2cc(C)c3cc(NC(=O)Cc4cccc(C)c4)ccc3n2)CC1
  1.7, 6.7
CCN(CC)CCCNC(=O)CCC(=O)Nc1ccc2nc(N3CCCCC3)cc(C)c2c1
  0.51, -21
CC(=O)NC(CCS(C)(=O)=O)C(=O)Nc1cccc(F)c1 (configuration not stated)
  1.1, 3.9
Cc1oc(-c2ccc(Cl)cc2)nc1CN1CCCC(C(=O)NCCN2CCOCC2)C1 (configuration not stated)
  0.87, -1.5
O=C(CCn1nc(-c2ccc(Cl)cc2)c2ccccc2c1=O)NC1CCCCC1
  1, 0.3
Cc1ccc(C)c(NC2c3ccccc3C(=O)N2c2cccnc2)c1 (configuration not stated)
  0.93, -0.92
Cc1ccc(-c2ccc(=O)n(CCC(=O)NCCN3CCN(c4cccc(Cl)c4)CC3)n2)cc1
  0.77, -0.48
O=C(NC1CC1)c1ccc2c(c1)N(Cc1ccccc1F)C(=O)CS2
  1.1, 2.8
COc1cccc(-c2nc(-c3ccccc3)no2)c1
  1.5, 4.4
Cc1ccc2nc(-c3ccc(N)cc3)oc2c1
  0.91, -1.6
CC1CN(c2oc(-c3ccc(F)cc3)nc2C#N)CC(C)O1 (configuration not stated)
  1.1, 0.98
CC1CCCCN1CCNC(=O)Cn1nc(-c2ccc(Cl)cc2)ccc1=O (configuration not stated)
  1, 0.53
Cc1cc2cc(CCNC(=O)C3CCCC3)c(=O)[nH]c2cc1C
  1, 2
O=C1CC(NCc2ccccc2)C(=O)N1c1ccc(Br)cc1 (configuration not stated)
  1.1, 2.5
CC(=O)NC(CCS(C)(=O)=O)C(=O)Nc1ccc(F)cc1Cl (configuration not stated)
  1.1, 4.2
CCOc1ccc(CCNC(=O)c2nc(-c3ccccc3C)oc2C)cc1OCC
  1.1, 0.2
CC(C)Nc1nc(-c2ccccc2Cl)nc2ccccc12
  0.91, -0.33
N#Cc1nc(COc2cccc(Cl)c2)oc1NCc1cccnc1
  0.88, -1.3
O=C(NCCc1ccccc1)c1nc2ccccc2[nH]1
  1.1, 1.1
CCOC(=O)c1cc(-c2ccccc2)n(CCC(=O)NCc2cccs2)c1C
  0.93, -0.81
Cc1ccc(Cn2nnc3c(=O)n(CC(=O)Nc4ccccc4C)cnc32)cc1
  0.84, -2.7
CNc1ccc([N+](=O)[O-])cc1-n1cnc(-c2ccc(OC)cc2)c1
  0.82, -2.3
O=C(CC1(O)C(=O)N(CCc2ccccc2)c2ccc(Cl)cc21)c1ccccn1 (configuration not stated)
  0.57, -0.57
CC(c1ccccc1)N1C(=O)CCC1(C)C(=O)NC1CCCCCC1 (configuration not stated)
  1, 0.025
CC1CCCC(NC(=O)C2c3ccccc3C(=O)N2Cc2ccccc2Cl)C1C (configuration not stated)
  1.1, 0.86
COc1ccccc1-c1nnc(NC(=O)c2ccc(S(=O)(=O)N3CCCC3)cc2)o1
  0.62, -8.6
CCOc1ccc(CCNC(=O)CCc2c(C)nc3ncnn3c2C)cc1OCC
  1.1, 1.5
CCOC(=O)c1cnc2c(C)c(Cl)ccc2c1NCCCN1CCOCC1
  1.1, 1.5
Cc1cc(=O)n2nc(N3CCCC(C(=O)NCCCN4CCCCC4C)C3)sc2n1 (configuration not stated)
  0.93, -0.53
COc1ccc(-c2csc(Nc3ccccc3OC)n2)cc1
  0.93, -1.2
COc1ccc(-c2nnc(SCC(=O)Nc3cc(F)ccc3C)o2)cc1
  0.97, -0.74
COCCNC(=O)CN1C(=O)COc2ccc(S(=O)(=O)N3CCCCCC3)cc21
  1, 0.16
C=CCN(c1ccccc1)S(=O)(=O)c1ccc2[nH]cc(C(=O)NCc3ccccc3)c(=O)c2c1
  0.98, -0.49
O=C(NC1CCCCCC1)C1CCCN(c2nc3ccccc3o2)C1 (configuration not stated)
  1.1, 1.7
CCCc1ccc(OCC(O)CN2CCCC2)cc1 (configuration not stated)
  1.1, 0.34
Cc1cc(N2CCN(C)CC2)nc2ccc(NC(=O)c3cccc(N(C)C)c3)cc12
  0.83, -6.2
c1ccc(OCCn2c(-c3ccccc3)nc3ccccc32)cc1
  1.1, 3.7
CCC1=Nc2cc(C(=O)NCCN(C)C3CCCCC3)ccc2Sc2ccc(C)cc21
  0.87, -6.9
O=C1CN(C(=O)c2ccccc2Br)C(c2ccccc2Cl)c2cc(Br)ccc2N1 (configuration not stated)
  0.9, -2.4
CCC1=Nc2cc(C(=O)NCc3ccccc3OC)ccc2Sc2ccc(C)cc21
  0.9, -5.2
Cc1ccc(NC(=O)CSc2nnnn2-c2ccccc2O)cc1C
  1.1, 1.3
COc1ccc(Cl)cc1NC(=O)c1c(NCc2ccccn2)sc2c1CCCC2
  0.93, -2.1
Cc1cccc(OCc2nc(C#N)c(N3CC(C)CC(C)C3)o2)c1 (configuration not stated)
  0.58, -2.6
O=C1CC(N2CCOCC2)C(=O)N1CCc1ccccc1 (configuration not stated)
  0.88, -1.9
O=C(CCCNS(=O)(=O)c1ccc2c(c1)CCC(=O)N2)NCc1ccc(Cl)cc1
  1, 0.28
CCOc1ccc(NC2c3ccccc3C(=O)N2c2ccccn2)cc1 (configuration not stated)
  0.96, -1.5
CCC1Oc2ccc(C)cc2N(CC(=O)N2CC(C)CC(C)C2)C1=O (configuration not stated)
  0.95, -0.85
CCOc1ccc(NC(=O)NCCCN2CCN(c3ccccc3F)CC2)cc1
  1.2, 1.7
O=C(NCc1ccccc1)c1cn(-c2ccccc2)nc1-c1cccnc1
  1, 0.27
COc1ccccc1CNC(=O)c1sc2nc(C)nc(N3CCC(C)CC3)c2c1C
  1.1, 0.98
O=C(C(=O)N1CCOCC1)c1c(-c2ccccc2)[nH]c2ccccc12
  0.94, -0.89
CCOc1ccc(N2C(=O)c3ccccc3C2Nc2ccccc2Cl)cc1 (configuration not stated)
  0.6, -4.8
COc1cc2c(cc1OC)-c1nnc(C)n1C(C)(C)C2
  0.97, -0.56
CC1(C)CC(CC(=O)N2CCCCC2)(c2ccccc2)CCO1 (configuration not stated)
  0.98, -0.16
CN(CCCNC(=O)c1csc2c1CCCCC2)C1CCCCC1
  0.94, -1.6

Ordered by the number under CBX7 inh z-score (descending): 3 from the list above
structure | CBX7 inh z-score
Cc1cc(=O)n2nc(N3CCCC(C(=O)NCCCN4CCCCC4C)C3)sc2n1 (configuration not stated) | -0.53
Cc1cccc(OCc2nc(C#N)c(N3CC(C)CC(C)C3)o2)c1 (configuration not stated) | -2.6
CCOc1ccc(N2C(=O)c3ccccc3C2Nc2ccccc2Cl)cc1 (configuration not stated) | -4.8

(more compounds)
Results follow in this order: CBX7 inh, CBX7 inh z-score
Cc1ccc(CN2C(=O)C(C)(C)N(C(=O)c3ccc(F)cc3)c3ccccc32)c(C)c1
  1.1, 4
Cc1ccc(CSc2nc3ccncc3n2CC(=O)Nc2ccc(C)cc2Cl)cc1
  1.5, 1.9
Fc1ccc(-c2cc(C(F)(F)F)nc(-n3cccn3)n2)cc1
  1, 1.7
c1ccc(CNCc2nc3ccccc3[nH]2)cc1
  0.97, -1.3
CCOc1ccc(NC(=O)N(CCC(C)C)C2CCN(C(C)=O)CC2)cc1
  0.95, -0.6
O=C(c1c[nH]c2ccc(S(=O)(=O)Nc3cccc(C(F)(F)F)c3)cc2c1=O)N1CCCC1
  0.87, -1.6
O=C(Nc1ccc2oc(-c3ccccc3F)nc2c1)c1ccc2c(c1)OCCO2
  1, -0.11
Cc1noc(C)c1S(=O)(=O)N(CC(=O)NCc1cccs1)c1ccc(C(C)C)cc1
  1.3, 1.1
O=C(CCn1nc(-c2ccc(Cl)cc2)c2ccccc2c1=O)Nc1ccc(F)cc1
  1.1, 1.5
COC(=O)Cc1c[nH]c2ccc(OCC(O)CNC(C)C)cc12 (configuration not stated)
  1, 1.3
COc1ccccc1Nc1nc(-c2ccccc2)c2ccccc2n1
  2.3, 23
Nc1nonc1-c1noc(C23CC4CC(CC(C4)C2)C3)n1
  1, 0.25
Cc1cccc(Cn2c(SCc3ccccc3F)nc3ccncc32)c1
  1, 0.011
CCOC(=O)c1cccc(NC(=O)c2cccc3c2C(=O)N(C2CCN(C(=O)OCC)CC2)C3)c1
  1, 0.91
CCc1ccc(NC(=O)CSc2nccn2-c2cccc(OC)c2)cc1
  0.87, -2
O=C(COc1ccc(Cl)cc1Cl)Nc1c(-c2cccs2)nc2ccccn12
  1.1, 1.3
O=C(CN1CCN(Cc2ccccc2Cl)C1=O)N1CCOCC1
  0.83, -2.3
CC(C)CC1Nc2ccc(C(=O)N3CCC(Cc4ccccc4)CC3)cc2NC1=O (configuration not stated)
  0.93, -0.078
Cc1ccc(-c2nc(Nc3cccc(C(F)(F)F)c3)sc2CC(=O)O)cc1
  0.98, -0.17
CCOc1ccc2nc(N3CCC(C(=O)N4CCN(C)CC4)CC3)sc2c1
  1, 0.13
COc1ccc(S(=O)(=O)N2CCC(C(=O)Nc3cccc(OC)c3)CC2)cc1
  0.99, -0.45
COc1ccc(NC(=O)C(Cc2ccccc2)NS(=O)(=O)c2ccc3c(c2)CCN3C(C)=O)cc1 (configuration not stated)
  0.99, -0.59
COc1cc(NC(=O)c2c(-c3ccccc3Cl)noc2C)cc(OC)c1
  1, 0.66
CCOc1ccc(-c2nnc(Nc3ccc(C(=O)N(CC)CC)cc3)c3ccccc23)cc1
  1, 0.052
CCOc1ccc(CCNS(=O)(=O)c2ccc3c(c2)CCN3C(C)=O)cc1OCC
  1.4, 1.8
CC1CCC(NC(=O)C2(C)CCC(=O)N2Cc2cccnc2)CC1 (configuration not stated)
  0.98, -0.35
CC(=O)Nc1ccc(NC(=O)c2cc3sc(Cl)cc3n2C)cc1
  0.99, -0.45
COc1cccc(C2CC(=O)NC3=C2C(=O)CC(C)(C)C3)c1 (configuration not stated)
  1, -0.021
CN(CCc1ccccn1)C(=O)c1nn2c(C(F)(F)F)cc(-c3cccs3)nc2c1Cl
  1.1, 1.5
COc1ccc(NC(=O)CCN(CCO)Cc2ccccc2)cc1
  0.93, -1.4

Copied from the list.
Reading of Cc1ccc(NC(=O)CSc2nnnn2-c2ccccc2O)cc1C under CBX7 inh: 1.1
Reading of CCOc1ccc(CCNC(=O)c2nc(-c3ccccc3C)oc2C)cc1OCC under CBX7 inh: 1.1
Reading of N#Cc1nc(COc2cccc(Cl)c2)oc1NCc1cccnc1 under CBX7 inh z-score: -1.3

(listing goes on)
Results follow in this order: CBX7 inh, CBX7 inh z-score
Cc1ccc(NC(=O)CCCN2C(=O)c3cccnc3C2=O)cc1Cl
  1.4, 0.79
COc1ccc(OCc2nc3ccccc3n2CCCOc2ccccc2)cc1
  0.74, -1.8
O=C(NCc1ccccc1)c1cc2sccc2n1Cc1ccc(Cl)cc1
  1.1, 3.1
COc1ccc(Nc2ncccc2C(=O)Nc2ccccc2)cc1
  0.9, -0.99
Cc1ccc(C(=O)Nc2ccc(-c3nc4ccccc4o3)cc2)cc1Cl
  1, 0.48
CCCC(CCC)C(=O)NCCc1cc2cc(C)c(C)cc2[nH]c1=O
  1.1, 2.9
COc1ccc(-n2c3c(cc(C(=O)Nc4ccccc4OC)c2=O)C(=O)CCC3)cc1
  1.2, 1.9
CCC1=Nc2cc(C(=O)NC(C)CC)ccc2Sc2ccccc21 (configuration not stated)
  0.93, -0.83
COc1ccc(Cc2nc(-c3cccnc3)no2)cc1
  1, 0.57
CCOc1ccc(Nc2nc(-c3ccc(OC)cc3)c(-c3ccccc3)s2)cc1
  0.81, -2.9
Cc1ccc(-n2c3c(cc(C(=O)Nc4ccc5c(c4)C(=O)NC5=O)c2=O)C(=O)CC(C)(C)C3)cc1
  1, 0.91
CCOC(=O)Cn1c2c(c(-c3ccccc3OC)cc1=O)CCCC2
  0.94, -1.5
Cc1cccc(C(=O)Nc2sc3c(c2C(=O)N2CCN(C)CC2)CCC(C)C3)c1 (configuration not stated)
  0.86, -0.19
COc1ccc2c(c1)CCc1c(C(=O)Nc3c(Cl)cccc3Cl)noc1-2
  1, 0.96
COC(=O)CNC(=O)c1nn(-c2ccccc2OC)c(=O)c2ccccc12
  0.93, -1.3
Fc1cc(Br)ccc1-n1ncnc1-c1ccc2c(c1)OCO2
  1.2, 3.2
Cc1ccc(CCN2CC(C(=O)NCCCN3CCCC3=O)CC2=O)cc1 (configuration not stated)
  1, 1.3
O=C(c1ccc2c(c1)N(Cc1ccc(Cl)cc1)C(=O)c1ccccc1S2(=O)=O)N1CCCCC1
  1.1, 1.8
O=C(c1cccc(NC2=NC3CS(=O)(=O)CC3S2)c1)N1CCN(c2ccc(F)cc2)CC1 (configuration not stated)
  0.82, -2
CC(C)(C)c1ccc(C(=O)Nc2cccc(-c3nc4ncccc4o3)c2)cc1
  0.76, -2.5
COc1ccccc1CC(=O)Nc1ccc(-c2noc(-c3ccc(F)cc3)n2)cc1
  0.95, -0.46
CCCN1CCN(C(=O)C2CCCN(C(=O)c3cnn(-c4ccccc4)c3-n3cccc3)C2)CC1 (configuration not stated)
  1.3, 2.5

Exported with bars between the fields: part of the list above.
SMILES | CBX7 inh | CBX7 inh z-score
Cc1ccc(-n2c3c(cc(C(=O)Nc4ccc5c(c4)C(=O)NC5=O)c2=O)C(=O)CC(C)(C)C3)cc1 | 1 | 0.91
Cc1cccc(C(=O)Nc2sc3c(c2C(=O)N2CCN(C)CC2)CCC(C)C3)c1 (configuration not stated) | 0.86 | -0.19
COc1ccc(Cc2nc(-c3cccnc3)no2)cc1 | 1 | 0.57
Cc1ccc(CCN2CC(C(=O)NCCCN3CCCC3=O)CC2=O)cc1 (configuration not stated) | 1 | 1.3
